PrP UTR inh: inhibition of PrP 5' UTR reporter expression; cell-based PrP 5' UTR mRNA reporter, plate reader; inhibition, % (test concentration not listed); 340,000 tested, 0.35% active; AID 488862, 2010;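 active = every replicate at 50% or more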;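 also: 0 = median of the neutral control wells; tested in H4 reporter cells; numbers are from one replicate; inactives centre near -14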
Autofluor counter: flagged as autofluorescent in microsphere protease counterscreen; compound autofluorescence counterscreen, microsphere flow cytometry; active compounds read high; fluorescence intensity (test concentration not listed); 360,000 tested, 3.1% active; AID 624483;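 active = at least 3 SD above the mean of all compounds, about 16000 in these data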;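 also: 100 nL of 1 mM stock went into each well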
* = called active by the depositor. An excerpt, so the mix of outcomes need not match the whole.

SMILES	PrP UTR inh	Autofluor counter
C/C=C(/C)C(=O)OC1CC(C)(C)C[C@H]2C3=CC[C@@H]4[C@@]5(C)CCC(O[C@@H]6O[C@@H](C(=O)O)[C@@H](O)C(O[C@@H]7OC[C@H](O)[C@@H](O)[C@@H]7O[C@@H]7OC(CO)C(O)[C@@H](O)[C@@H]7O)C6O[C@@H]6OC(CO)C(O)C(O)C6O)[C@@](C)(CO)[C@@H]5CC[C@]4(C)[C@]3(C)CC(O)[C@@]12CO (some centres undefined)	-5	4336
Oc1c(Br)cc(Br)c2cccnc12	-13	5289
COc1ccc(CN(C)CCCn2cnc3c(OCc4ccccc4)ncnc32)cc1OC	-7	3149
Nc1ncnc2c1ncn2[C@@H]1O[C@H](COS(=O)(=O)O)[C@@H](O)[C@H]1O	-24	3970
CCN(c1ccccc1)S(=O)(=O)c1cccc(C(=O)NCC(c2ccco2)N2CCCCC2)c1 (centres undefined)	-32	2884
C/C=C(/C)C(=O)O[C@@H]([C@H](O)c1cc2ccc(=O)oc2cc1OC)C(C)(C)O[C@@H]1O[C@H](CO)[C@@H](O)[C@H](O)[C@H]1O	-13	3798
CC1CCC2(CC1)NC(=O)N(CC(=O)Nc1cccc(S(=O)(=O)N3CCCCC3)c1)C2=O (centres undefined)	-19	4139
CCOC(=O)C1=CC[C@@H](c2cc3cc(OC)ccc3n2C)N(S(=O)(=O)c2ccc(C)cc2)[C@H]1C(=O)OCC	-8	3795
OCC[C@H]1C[C@H](O)[C@@H](O)[C@@]2(Cc3ccccc3CO2)O1	-10	2932
Cc1cc(C(=O)COC(=O)c2nn(C)c(=O)c3ccccc23)c(C)n1C	-6	2753
C#CCOCCOCCOCCNc1nc(N2CCN(C(=O)Cn3cc(CCO)nn3)CC2)nc(N2CCN(C(=O)[C@H]([C@@H](C)CC)n3cc(CCCCN)nn3)CC2)n1	-13	4069
CC(C)(C)OC(=O)C[C@@H]1C/C=C\C[C@H](CC(=O)NCCO)C(=O)N[C@@H](Cc2ccccc2)COC1=O	-21	4179
O=C(C[C@@H]1C/C=C/CC[C@@H](Cc2ccc(F)cc2)C(=O)OC[C@H](Cc2ccccc2)NC1=O)N[C@H](CO)Cc1ccccc1	-13	3498
COC(=O)C1=C(c2ccc(C(C)=O)cc2)C[C@@H]2CC[C@H]1N2C(=O)NC(C)C	-30	3584
COC1=C[C@@H]2C3=C([C@@H]2C1=O)[C@@H](NC(C)=O)CCc1cc(OC)c(OC)c(OC)c13	-31	5742
CCC/C(C#Cc1cc(OC)cc(OC)c1)=C1/c2ccccc2C(=O)N1c1ccccc1	-12	3915
C[C@@H]1CN([C@H](C)CO)C(=O)c2cc(NC(=O)Nc3ccc(C(F)(F)F)cc3)ccc2O[C@H]1CN(C)S(=O)(=O)c1cccs1	-10	2864
CC1CCCN(C(=O)CSc2nnc3ccccn23)C1 (centres undefined)	-19	4032
CC(C)(C)OC(=O)C[C@H]1C/C=C\C[C@@H](CC(=O)N[C@@H](CO)Cc2ccccc2)C(=O)N2CCC[C@@H]2COC1=O	-26	4057
COc1cc(O)c2c(=O)c3c(O)c(O)ccc3oc2c1OC	-11	5564
Nc1ccn(C2CCCO2)c(=O)n1 (centres undefined)	2	3038
O=C1CCCN1C(=O)CSc1nnnn1-c1ccccc1	-20	3632
OCC[C@H]1C[C@@H](O)[C@H](O)[C@@]2(OCCc3ccccc32)O1	-2	2870
O=C(Oc1ccc(/C=N/NC(=O)c2ccco2)cc1)c1ccccc1	-14	6503
C[C@H](O)Cc1cc2ccccc2c(=O)o1	-10	3543
Other compounds follow.
SMILES	PrP UTR inh	Autofluor counter
COc1ccc(C2=CC(=O)C[C@H](c3ccc(Cl)cc3)C2)cc1	-12	3804
N#CC(C#N)=C1SC(=Nc2ccccc2)C(=Nc2ccccc2)N1c1ccccc1	-50	3707
CC(C)(C)OC(=O)N[C@@H](C(=O)OC(C)(C)C)c1ccc2c(c1)OCO2	1	4564
CC1(C)O[C@@H]2C[C@H]3[C@@H]4CCC5=CC(=O)C=C[C@]5(C)[C@@]4(F)[C@@H](O)C[C@]3(C)[C@]2(C(=O)CO)O1	0	4448
COc1ccc([C@H]2CC(=O)C=C(c3ccccc3C(F)(F)F)C2)cc1	-9	4316
COc1ccc(Cl)cc1NC(=O)COC(=O)c1c(-c2ccccc2)noc1C	-3	4060
COc1ccc(NC(=O)Nc2cccc3c2O[C@H](CN(C)C(=O)Nc2ccc(C(F)(F)F)cc2)[C@@H](C)CN([C@H](C)CO)C3=O)cc1	6	4301
CCOC(=O)c1[nH]cnc1C(=O)N1CCC(C)CC1	-6	2952
Cc1ccc(S(=O)(=O)N2CC(C(=O)O)=CC[C@H]2c2ccc3c(c2)OCO3)cc1	-9	3712
Fc1ccccc1-c1ccc(/C=N/Nc2nc3ccccc3[nH]2)o1	-72	2573
CC(=O)C[C@@H](O)CC(=O)[C@@H]1OC(=O)CCCCCCCc2ccccc21	-10	3072
C[C@@]12C(=O)Nc3ccccc3C(=O)N1[C@H]1c3cc(Br)ccc3OC[C@@H]1[C@@H]2c1ccccc1	-21	4092
CCOC(=O)OC(C)OC(=O)[C@@H]1N2C(=O)[C@@H](NC(=O)[C@H](N)c3ccccc3)[C@H]2SC1(C)C (some centres undefined)	54*	5155
COC(=O)C[C@H](NC(=O)Cn1cnc2c(SC)nc(N)nc21)C(=O)OC	-13	3014
O=C1CSC(=S)N1/N=C/c1ccc(O)c([N+](=O)[O-])c1	-25	3885
COc1ccc(/[N+]([O-])=C/c2ccoc2)cc1	-31	4605
CCOC(=O)[C@]12Cc3cc(C)ccc3[C@H]1N(Cc1ccccc1)C(=O)c1ccccc12	-19	4073
CC(=O)Nc1cccc(O)c1	4	5451
CCc1ccc(Nc2nnc(SCC(=O)NC(=O)CN3CCCC3=O)s2)cc1	-13	4015
C=CC[C@@H](CC(=O)NCCO)C(=O)N[C@@H](COC(=O)[C@@H](CC=C)Cc1ccc(F)cc1)Cc1ccccc1	-15	3036
COC(=O)c1ccc(=O)c2nc3/c(=C/O)c(O)cc(=O)c3[nH]c12	0	3948
O=[N+]([O-])c1cccc(COc2ccc(CN3CCCCC3)cc2)c1	-54	4108
CC(C)=CCC[C@](C)(O)C1CC[C@]2(C)C1[C@H](O)CC1[C@@]3(C)CC[C@H](O[C@@H]4O[C@H](CO)[C@@H](O)[C@H](O)[C@H]4O[C@@H]4O[C@H](CO)[C@@H](O)[C@H](O)[C@H]4O)C(C)(C)C3CC[C@]12C (some centres undefined)	-12	3777
N#C/C(=C/c1ccc(-c2ccccc2)o1)c1nc(-c2cccs2)cs1	-8	15612
COc1ccc([C@@H]2CC=C(C(=O)O)[C@H](c3cccc(Cl)c3)N2S(=O)(=O)c2ccc(C)cc2)cc1OC	-23	4025
Next records follow.
SMILES	PrP UTR inh	Autofluor counter
COc1cc(NC(=O)COC(=O)CO/N=C(\C)c2ccc3c(c2)OCO3)cc(OC)c1	-11	4718
C[C@H](CO)N1C[C@H](C)[C@@H](CN(C)C(=O)NC2CCCCC2)Oc2ccc(NS(=O)(=O)c3ccc(F)cc3)cc2C1=O	-15	3658
Cc1c(C(C)CCCO)oc(=O)c2c1Oc1c(C)c(C(C)C[C@H](C)O)oc(=O)c1C2 (some centres undefined)	-2	2867
O=C(O)c1ccc(NCc2nc3cc4ccccc4cc3[nH]2)cc1	-4	3892
COc1ccc(S(=O)(=O)Nc2cccc3c2O[C@H](CN(C)S(=O)(=O)c2ccc(Cl)cc2)[C@H](C)CN([C@H](C)CO)C3=O)cc1	-14	3979
CN(C)C1=NC[C@H](Cc2ccccc2)N1CCCC1CCCCC1	15	3983
CC(C)[C@H](NC(=O)c1ccc(Cl)cc1Cl)C(=O)NNc1cccc(C(=O)O)c1	-49	3237
O=C(N[C@H]1C/C=C\C[C@@H](CC(=O)N(CCO)Cc2ccccc2)C(=O)N[C@H](Cc2c[nH]c3ccccc23)COC1=O)OCC1c2ccccc2-c2ccccc21	-21	3760
CC[C@]12C(=O)N(C)C[C@H]([C@@H]3C(=O)N(Cc4ccccc4)C(=O)[C@@H]31)N2C(=O)c1ccc(C(C)(C)C)cc1	-29	4593
C#CCOCCOCCOCCNc1nc(N2CCN(C(=O)[C@H]([C@@H](C)CC)n3cc([C@@H](N)CO)nn3)CC2)nc(N2CCN(C(=O)[C@H](CCCCN)n3cc([C@@H](N)CO)nn3)CC2)n1	-13	2974
CN(C)CCCN1c2ccccc2Sc2ccc3ccccc3c21	10	2904
O=C(O)CCn1cc(/C=C/C(=O)c2ccc(Cl)cc2)c(-c2ccc(Br)cc2)n1	-38	2631
C#CCOCCOCCOCCNc1nc(N2CCN(C(=O)CCCCCCCCCCNC(=O)[C@@H](CCC(=O)O)n3cc(CCCCCN)nn3)CC2)nc(N2CCN(C(=O)CCCCCCCCCCNC(=O)[C@@H](CCC(=O)O)n3cc(CCCCCN)nn3)CC2)n1	-20	3965
COC(=O)C1=C(c2ccc(OC(F)(F)F)cc2)C[C@@H]2CC[C@H]1N2C(=O)NCCNC(C)=O	-15	3108
COc1ccc(C=O)cc1C1=CC(=O)C[C@H](c2ccc(Cl)cc2)C1	-4	3623
C[C@]12CC[C@H](O)C[C@H]1CC[C@@H]1C2CC[C@]2(C)[C@@H](C3=CC(=O)OC3)[C@@H](O)C[C@]12O (some centres undefined)	49	3815
COC(=O)C1=C(c2ccc(OC)c(OC)c2)C[C@@H]2CC[C@H]1N2C(=O)NC1CCCCC1	-17	3731
CS(=O)(=O)N1Cc2ccccc2-n2nncc2C1	8	4065
C[C@@]12CCC[C@H](O1)[C@@H]([C@H](O)c1ccccc1)O2	-11	3625
COc1ccc(S(=O)(=O)N(C)C[C@H]2Oc3ccc(NC(=O)Nc4c(C)noc4C)cc3C(=O)N([C@H](C)CO)C[C@@H]2C)cc1	-16	3466
Cc1ccc(S(=O)(=O)N2Cc3ccccc3-n3nncc3C2)cc1	-8	3050
c1ccc2c(C[C@@H]3CNCCN3CCCCC3CCCCC3)cccc2c1	-7	4539
COc1cc(/C=C2\C[C@H]3[C@@H]4CC=C5C[C@@H](N6CCCC6)CC[C@]5(C)[C@H]4CC[C@]3(C)[C@H]2O)cc(OC)c1OC	9	4335
CSCCC1NC(=O)C(C(C)=Nc2ccccc2)=C1O (centres undefined)	-20	4470
Nc1cc([N+](=O)[O-])ccc1OCc1ccccc1	-107	3772
Other compounds:
SMILES	PrP UTR inh	Autofluor counter
Cc1ccccc1S(=O)(=O)N1[C@@H](c2cccc(Cl)c2)C(C(=O)O)=CC[C@H]1c1ccc(Cl)cc1	-16	4220
CCC(C)n1c(C)cc(=O)n1C(C)CC (centres undefined)	-33	3762
C#CCOCCOCCOCCNc1nc(N2CCN(C(=O)CCCCCCCCCCNC(=O)Cn3cc(CCCCCN)nn3)CC2)nc(N2CCN(C(=O)CCCCCCCCCCNC(=O)[C@H](CO)n3cc(CCCSC)nn3)CC2)n1	-15	4074
COc1cc(C(=O)O/N=C2/C=C(C)C(=O)C=C2C)cc(OC)c1OC	-16	2466
C[C@@H]1COC(=O)[C@H](NC(=O)OCC2c3ccccc3-c3ccccc32)C/C=C\C[C@@H](CC(=O)N[C@@H](CO)Cc2ccccc2)C(=O)N1	-15	3053
C#CCOCCOCCOCCNc1nc(N2CCN(C(=O)CCCCCCCCCCNC(=O)Cn3cc(C[C@@H](C)O)nn3)CC2)nc(N2CCN(C(=O)CCCCCCCCCCNC(=O)[C@@H](CCSC)n3cc(CCO)nn3)CC2)n1	-36	3937
CCOC(=O)C1CCN(C(=O)c2ccc(NS(=O)(=O)c3ccc4[nH]c(=O)[nH]c4c3)cc2)CC1	9	2862
COc1ccccc1C=CC(=O)C=Cc1ccccc1OC	-84	3073
COc1cc(C2c3cc4c(cc3CC3COC(=O)C32)OCO4)cc(OC)c1O (centres undefined)	38	3111
COc1cc(/C=C2\CCC(C)C3=C(c4cc(OC)c(OC)c(OC)c4)C(C#N)=C(N)OC32)cc(OC)c1OC (centres undefined)	3	4554
CN(C)c1ccccc1-c1csc(N2CCC(C(N)=O)CC2)n1	-57	3435
CCC1C2Cc3ccc(O)cc3C1(CC)CCN2C (centres undefined)	10	3982
C#CCOCCOCCOCCNc1nc(N2CCN(C(=O)CCCCCCCCCCNC(=O)Cn3cc(C[C@@H](C)O)nn3)CC2)nc(N2CCN(C(=O)CCCCCCCCCCNC(=O)[C@H](CCCCN)n3cc(C[C@@H](C)CC)nn3)CC2)n1	-10	4462
C[C@@H](CN1CCC[C@H]1CN1C(N)=NC[C@@H]1Cc1ccccc1)N1C[C@@H](Cc2ccccc2)N(CCc2ccc(Cl)c(Cl)c2)C1=N	-13	3242
CCOc1ccccc1OCCCC(=O)N1CCN(S(=O)(=O)c2cc(F)ccc2F)CC1	-22	4128
O=C(N/N=C/c1ccccc1)C1CCCN1C(=O)c1cc([N+](=O)[O-])cc([N+](=O)[O-])c1 (centres undefined)	-8	5282
COc1cccc(N2C(=O)CC(N3CCN(S(=O)(=O)c4ccccc4[N+](=O)[O-])CC3)C2=O)c1 (centres undefined)	-17	3411

Of the compounds above, five have a furan ring, fused or not.
SMILES	PrP UTR inh	Autofluor counter
CCN(c1ccccc1)S(=O)(=O)c1cccc(C(=O)NCC(c2ccco2)N2CCCCC2)c1 (centres undefined)	-32	2884
O=C(Oc1ccc(/C=N/NC(=O)c2ccco2)cc1)c1ccccc1	-14	6503
Fc1ccccc1-c1ccc(/C=N/Nc2nc3ccccc3[nH]2)o1	-72	2573
COc1ccc(/[N+]([O-])=C/c2ccoc2)cc1	-31	4605
N#C/C(=C/c1ccc(-c2ccccc2)o1)c1nc(-c2cccs2)cs1	-8	15612
